Assay outcomes from PubChem.
Menin MLL FP FL: qHTS Assay for Inhibitors Targeting the Menin-MLL Interaction in MLL Related Leukemias: Competition With Fluorescein Labeled MLL-derived Peptide. FP activity change, % at 61.4 µM. Fluorescence polarization, fluorescein-MLL peptide displacement from menin. 290,000 tested, under 10 active. AID 1766, 2009; inconclusive = falling polarisation curve, or a change in total fluorescence; inactive = total fluorescence flat and polarisation flat or rising; no compound was filed as active; the % refers to the polarisation; negative = inhibition;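 further: % of control where 0% means no effect; inhibitors lower the polarisation; unlabelled MLL peptide was the positive control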
gsp antag: qHTS for Antagonists of gsp, the Etiologic Mutation Responsible for Fibrous Dysplasia/McCune-Albright Syndrome: qHTS; Potency, µM (highest dose often 76.9 µM), for the others: at the top dose activity change, negative = inhibition, hits mostly inhibitors; gsp-mutant cells, cAMP HTRF, 30 min; control for the full effect not named in the record; 0.4% of 340,000 active; active = falling curve of any shape with a large fitted effect; inconclusive = falling curve, mostly with a smaller effect; inactive = flat or rising curve; cell line not stated here;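 further: intracellular cAMP measured with PDE inhibitor Ro 20-1724 present during compound exposure; potency means the concentration at half of the fitted maximal effect; on the % scale 0 is the no-effect control and ±100 the full control effect; nearly all actives have a fitted effect of over 65% in size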
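Cells in G418 medium, seeded 16-24 h, 37C; buffer exchange to DPBS + 1 mM CaCl2, 0.5 mM MgCl2, 0.05% BSA; cpds in DMSO + […] (300 uM stock), 30 min 37C; HTRF cAMP detection.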
TRPML1 blocker: qHTS for Inhibitors of the Human Mucolipin Transient Receptor Potential 1 (TRPML1). activity change, negative = inhibition, % (concentration not given with the values). 0.02% of 390,000 active. TRPML1-inducible cells, Ca2+ dye fluorescence, FDSS; stronger effect = lower value; inhibition of EC80 agonist-evoked calcium signal; in the data active means activity change below about -50%; inconclusive means about -30% to -50%; inactive means above about -30%;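 further: stimulus is agonist 54-4 at its EC80 concentration; on the % scale 0 is the no-effect control and ±100 the full control effect; compound concentration not given in the record; the text of the record puts the active cut at -80%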
Target sequence (Q9GZU1 whole entry, looked up): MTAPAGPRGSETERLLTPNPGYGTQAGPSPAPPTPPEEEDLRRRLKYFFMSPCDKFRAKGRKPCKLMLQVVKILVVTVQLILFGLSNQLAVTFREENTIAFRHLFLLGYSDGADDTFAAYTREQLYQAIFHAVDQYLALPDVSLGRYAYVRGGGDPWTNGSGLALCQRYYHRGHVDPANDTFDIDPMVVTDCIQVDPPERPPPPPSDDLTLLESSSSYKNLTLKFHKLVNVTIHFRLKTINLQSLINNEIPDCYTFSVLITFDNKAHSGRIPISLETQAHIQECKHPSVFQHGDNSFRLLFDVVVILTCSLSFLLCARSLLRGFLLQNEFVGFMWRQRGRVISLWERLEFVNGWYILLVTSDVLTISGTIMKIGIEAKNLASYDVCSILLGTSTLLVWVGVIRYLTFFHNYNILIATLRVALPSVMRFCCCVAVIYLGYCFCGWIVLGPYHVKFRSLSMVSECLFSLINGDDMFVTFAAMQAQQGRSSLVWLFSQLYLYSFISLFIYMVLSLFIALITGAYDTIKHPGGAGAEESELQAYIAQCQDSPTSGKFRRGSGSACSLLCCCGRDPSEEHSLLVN
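Tet-induced TRPML1-DL cells loaded with Ca8 no-wash calcium dye were read kinetically on FDSS. Compound addition was followed by EC80 agonist 54-4 (4 uM final); inhibition was read over 110 s.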
gsp agonist: qHTS for Agonist of gsp, the Etiologic Mutation Responsible for Fibrous Dysplasia/McCune-Albright Syndrome: qHTS; gsp mutant cells, cAMP HTRF, 30 min; control for the full effect not named in the record; Potency, µM (top dose mostly 76.9 µM), for the others: at the highest dose activation (cAMP increase), actives largely listed as activators; 0.13% of 340,000 active; active = well fitted activation curve with a large enough effect; inconclusive = small, poorly fitted or top-dose-only effect, or another doubt; inactive = no such curve, though single readings can be large or run the other way; cell line not stated here;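 further: phosphodiesterase inhibitor Ro 20-1724 added with compounds to block cAMP breakdown; potency means the concentration at half of the fitted maximal effect; nearly all actives have a fitted effect of over 60% in size; about a fifth of the inactives were tested at one dose only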
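Cells stably selected in G418 were plated at 2000/well, grown 16-24 hr, then given compounds in DMSO with the PDE inhibitor […] (300 uM solution added) for 30 min at 37C; cAMP was read by HTRF.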
ClpP mod: qHTS Assay for Activators of ClpP. purified B. subtilis ClpP, FRET peptide cleavage, 20 min. Potency, µM (series often up to 57.5 µM), for the others: top-dose activity change, negative = active. 1.9% of 340,000 active; active = well fitted falling curve with a large enough effect; inconclusive = small, poorly fitted or top-dose-only effect; inactive = no such curve, though single readings can be large or run the other way; further: potency means the concentration at half of the fitted maximal effect; the source files actives as falling curves though it sought activators and does not explain the sign; nearly all actives have a fitted effect of over 65% in size; many hits overshoot -100%
Target sequence (P80244 whole entry, looked up): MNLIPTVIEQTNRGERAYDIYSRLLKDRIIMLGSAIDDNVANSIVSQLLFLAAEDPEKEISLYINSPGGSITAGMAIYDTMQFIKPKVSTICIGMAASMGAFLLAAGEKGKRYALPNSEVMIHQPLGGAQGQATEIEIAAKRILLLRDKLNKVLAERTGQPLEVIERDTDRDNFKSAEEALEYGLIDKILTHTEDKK
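FRET quenching reversal measured ClpP activation: 10 microg/mL B. subtilis ClpP at pH 8 with the FRET-FV decapeptide, read at 430 nm after 320 nm excitation. The 20-min minus 0-min signal was scaled between DMSO/no-enzyme wells and ADEP (5.8 microM final).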
TRPML1 agonist: qHTS for Agonists of the Human Mucolipin Transient Receptor Potential 1 (TRPML1). TRPML1-expressing cells, Ca2+ dye fluorescence, FDSS; host cell line not named in the record; reference of the full effect not given here. Mucolipin-1 (Homo sapiens), Q9GZU1. 0.12% of 410,000 active. activation, % (no concentration beside the values); in the data active = activation above about 50%; inconclusive = about 30% to 50%; inactive = below about 30%; further: 0% is about no effect; the text of the record puts the active cut at 80%
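Tet-induced TRPML1-DL cells, 1,500 per well, cultured overnight, were loaded with a no-wash Ca2+ dye for 45–90 min. Calcium fluorescence was recorded on the FDSS for 110 s after compound addition, before the EC80 agonist (4 uM 54-4) was added.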
The depositor's hits bear a star; ? = inconclusive; . = not tested or not shown; & = joins results of further samples; [ ] = dose if it differs, or a comment.

Screens in order: Menin MLL FP FL	gsp antag	TRPML1 blocker	gsp agonist	ClpP mod	TRPML1 agonist
> Cc1ccc(CNC(=O)CCSCc2ccc(C)cc2)cc1
→ 1.4	3%	-4	-6%[15.4 µM]	0.3%	-1.1
> Cn1c(N)c(C(=O)COC(=O)c2ccccc2C(=O)c2ccc(Cl)c([N+](=O)[O-])c2)c(=O)n(C)c1=O
→ .	22%	-12	16%[15.4 µM]	3.0%	0.7
> CCOC(=O)C1C(=O)C=C(c2ccccc2)CC1c1ccccc1 (configuration not stated)
→ .	-26%	9	-9%	.	4.8
> Cn1nc(C(C)(C)C)c([N+](=O)[O-])c1C(=O)Nc1cccc2ccccc12
→ 0.4	-7%	43	-17%	1.6%	5.6
> CCCCC(CC)C(=O)Nc1ccc(C)c(O)c1 (configuration not stated)
→ 0.1	10%	9	1%[15.4 µM]	.	-0.9
> Oc1ccc(C[C@H]2CNC(=S)N2C[C@H]2CCCN2C[C@H](Cc2ccccc2)N2C[C@H](Cc3ccc(O)cc3)N(CCc3ccccc3)C2=S)cc1
→ .	.	-17	.	-2.4%	-0.1
> C=CCN(c1ccccc1)S(=O)(=O)c1cccc(C(=O)Nc2nc3ccccc3[nH]2)c1
→ 4.7	-20%	21	1%	-21%	3.5
> CCOC(=O)c1c(NC(=O)CSc2ncn[nH]2)sc(C(=O)NC)c1C
→ 4.3	-9%	5	-21%	-1.4%	1.5
> NN=C1C(=O)c2cccc3cccc1c23
→ .	-2%	-11	-36%[inhibitor]	.	-0.2
> Cc1ccc2c(=O)c(C(=O)c3cccc(Cl)c3)cn(CC(=O)NC3CCCCC3)c2n1
→ .	.	-9	.	-4.3%	2.8
> Cc1ccc(S(=O)(=O)Oc2ccccc2/C=C2/SC(=O)NC2=O)cc1
→ 1.7	?	-4	5%[15.4 µM]	0.6%	0.1
> CC(=O)c1ccc(C#CC(C)(C)O)s1
→ 3.3	-8%	-6	-9%	-5.0%	-0.3
> COC(=O)CSC1=C(C#N)C(c2cccc(F)c2)CC(=O)N1 (configuration not stated)
→ 0.6	9%	2	-1%	-1.5%	-0.9
> CNc1nc(C)c(C(=O)c2ccc(Cl)cc2)s1
→ 13	0%	-10	-19%	-1.3%	-0.2
> C[C@H]1NC(=O)[C@]2(C)[C@@H](c3ccccc3)[C@H]3COc4ccccc4[C@@H]3N2C1=O
→ .	-4%	21	.	-6.7%	-0.2
> O=C(COC(=O)c1ccc(Cl)nc1)NCc1ccc2c(c1)OCO2
→ 0.2	0%	-12	25%[15.4 µM]	-0.6%	-0.3
> O=C(C[n+]1cccc(CO)c1)Nc1nc2ccccc2s1
→ -0.9	2%	10	-6%	1.9%	-0.2
> O=C(OC(C(=O)NCc1cccs1)c1ccc(F)cc1)c1ccco1 (configuration not stated)
→ 2.1	5%	13	-3%	4.0%	1.3
> COCCNC(=O)c1ccc(CS(=O)(=O)c2ccc(C)cc2)o1
→ 2.7	10%	4	-20%	-0.3%	0.0
> O=c1cc(-c2cccc(Br)c2)oc2cccc(O)c12
→ 2.1	-2%	15	18%	0.2%	-0.7
> O=[N+]([O-])c1ccccc1/C=C/C=N/Nc1nc(N2CCCCC2)nc(N2CCCCC2)n1
→ 1.6	-6%	-2	16%[15.4 µM]	.	0.3
> COc1ccc(C(C#N)N2CCOCC2)cc1 (configuration not stated)
→ -1.3	17%	32	4%	0.3%	-0.3
> Cc1cccc(S(=O)(=O)Nc2ccc(-n3c(C)nc4ccccc4c3=O)cc2)c1
→ .	-17%	-14	?	-4.7%	1.1
> C/C(=N\NC(=O)Cc1ccc(Cl)cc1)c1ccc(F)cc1
→ 6.0	4%	-6	0%	-0.4%	-0.3
> O=C(Nc1cc([N+](=O)[O-])ccc1N1CCCC1)c1ccco1
→ 0.2	-59%	24	30%[15.4 µM]	.	-1.0
> COc1cccc(/C=N/NC(=S)Nc2cccc(C(=O)O)c2)c1O
→ -6.8	6%	1	?	-8.1%	4.4
> CC1=C(C(=O)N(C)C)CC(CC(=O)NC2CC2)C(=O)N1Cc1ccc(C(C)(C)C)cc1 (configuration not stated)
→ .	.	?	13%	1.5%	-0.3
> Cc1cc(NC(=O)CN2CCC(O)CC2)nc2c1c(=O)oc1ccccc12
→ .	.	8	.	-9.9%	-1.1
> N#C/C(=C/c1ccc(F)cc1)c1nnc(NC(=O)c2ccccc2)s1
→ 4.8	-2%	4	-1%	2.6%	0.1
> CCN1CCN(CCCNC(=O)c2ccc3c(c2)sc2nc(-c4ccc(C)cc4)cn23)CC1
→ .	.	14	.	?	0.1
> CCn1c(=O)c2cc(C(=O)NC(C)C)sc2c2ccccc21
→ 1.8	2%	.	8%	3.5%	.
> CCCCC(=O)Nc1c(-c2cccc(OC)c2)c(=O)c2ccccc2n1C
→ -2.1	8%	-22	-1%	-19%	1.8
> N=c1c(C(=O)NCc2ccco2)cc2c(=O)n3ccccc3nc2n1Cc1ccccc1
→ 12	-16%	0	8%	18µM*	0.0
> COc1cc(SC)ccc1C(=O)OCC(=O)NCCNC(=O)COC(=O)c1ccc(SC)cc1OC
→ .	-7%	36	-19%	-7.9%	1.3
> C/C(Cc1ccccc1)=N\NC(=O)CNC(=O)/C=C\c1ccccc1
→ -0.5	5%	0	2%[15.4 µM]	.	0.1
> O=C(NNC(=S)NC(=O)c1ccccc1)c1ccc([N+](=O)[O-])cc1
→ -2.3	-4%	1	-17%	-0.2%	1.2
> O=C(NCCc1ccc(Cl)cc1)c1cnc2sc(N3CCOCC3)nn2c1=O
→ .	.	-8	.	-14%	-0.2
> C=CCNc1nc(C(=O)OCC)nc2ccccc12
→ -0.8	5%	1	10%	-8.0%	-0.7
> O=C(O)c1ccc(NS(=O)(=O)c2cc(Cl)ccc2Cl)cc1O
→ 1.1	2%	-3	?	-2.5%	-0.2
> Cc1cc(C(C)(C)CC(C)(C)C)ccc1OCCOCC[N+](C)(C)Cc1ccccc1
→ -13	-10%	13	.	1.9%	0.3
> CCOc1cccc(CN2CCC(n3nccc3NC(=O)C3CCCC3)CC2)c1
→ .	-2%	-1	4%[15.4 µM]	0.5%	-0.5
> O=C(O)c1ccc2c(c1)C(=O)N(CCc1ccccc1)C2=O
→ -2.6	-21%	-2	-11%	-0.2%	0.2
> O=C(Nc1ccc(F)cc1)N1CCN(c2ccc3nnc(-c4ccc(F)cc4)n3n2)CC1
→ 3.4	?	-2&3	27%	-9.2%&-1.4%	3.1&1.0
> Cc1cc([N+](=O)[O-])c(-c2ccc(/C=N/n3cnnc3)o2)cc1Cl
→ 5.1	-11%	7	-35%[inhibitor]	1.9%	0.2
> C=CCOC(=O)Nc1snnc1C
→ 3.6	-6%	-2	-23%	0.7%	-0.1
> C=CCn1c(COc2ccc(F)cc2)nnc1SCC(=O)NC1CC1
→ .	-3%	3	4%[15.4 µM]	.	-0.6
> COc1ccc(Nc2nc(N)c([N+](=O)[O-])c(N3CCCC3)n2)cc1
→ -8.4	1%	13	28%	1.7%	5.8
> Cn1c(CCN2CCCCC2)nc2cc(NS(=O)(=O)c3ccccc3)ccc21
→ 1.1	7%	-6	1%	28µM*	0.0
> COc1ccc(C(=O)OCc2c(C)noc2C)cc1
→ -1.7	.	-6	0%[15.4 µM]	.	-0.6
> CC(CCc1ccccc1)NC(=O)COC(=O)c1ccc(S(C)(=O)=O)c([N+](=O)[O-])c1 (configuration not stated)
→ 0.5	?	7	3%[15.4 µM]	.	1.8
> Cc1cc(=O)oc2cc(OCC(=O)OCC(=O)N3CCC(C)CC3)ccc12
→ 1.2	.	-17	-20%[15.4 µM]	.	-0.4
> CCn1c(SCC(=O)N2c3ccccc3Sc3ccccc32)nc2c1c(=O)n(C)c(=O)n2C
→ 4.9	22%	9	3%	-2.0%	1.1
> CC(C)C(=O)N1CCN(c2ccccc2NC(=O)c2cc([N+](=O)[O-])ccc2N2CCOCC2)CC1
→ -2.8	?	-3	1%	-0.1%	-0.5
> O=C(NCc1ccccc1)c1cccc(Br)n1
→ -1.5[94.6 µM]	6%	43	?	-2.2%	0.1
> COc1ccc(N(CC(=O)N2CCOCC2)S(C)(=O)=O)cc1Cl
→ 2.6	5%	10	0%[15.4 µM]	5.5%	0.6
> CCOC(=O)N1CCN(C(=S)NC(=O)c2ccc(Br)cc2)CC1
→ 5.1	1%	2	6%[15.4 µM]	.	3.0
> CCOC(=O)C1=C[C@@H](C(C)(C)C)N(S(=O)(=O)c2ccc(C)cc2)[C@H]1c1cccc(Cl)c1
→ .	.	-13	.	-3.0%	0.4
> Cn1nc(-c2ccc(C(=O)NCCO)cc2)c2ccccc2c1=O
→ -0.7	2%	31	?	.	1.1
> CCCC(C(=O)NC1=NCCS1)c1ccccc1 (configuration not stated)
→ 0.2	0%	-15	1%	.	0.9
> CC(=O)c1sc(NC(=O)c2oc3ccc(F)cc3c2C)nc1C
→ .	-16%	12	3%	-8.1%	-0.4

Laid out differently: entries from further up
Molecule,Menin MLL FP FL,gsp antag,TRPML1 blocker,gsp agonist,ClpP mod,TRPML1 agonist
COc1ccc(Nc2nc(N)c([N+](=O)[O-])c(N3CCCC3)n2)cc1,-8.4,1%,13,28%,1.7%,5.8
Cn1c(CCN2CCCCC2)nc2cc(NS(=O)(=O)c3ccccc3)ccc21,1.1,7%,-6,1%,28µM*,0.0

Going on with the list:
Screens in order: Menin MLL FP FL	gsp antag	TRPML1 blocker	gsp agonist	ClpP mod	TRPML1 agonist
> Cc1cc(C)c(S(=O)(=O)N2CCCOC2CNC(=O)C(=O)NCCC2=CCCCC2)c(C)c1 (configuration not stated)
→ 1.2	8%	-17	-43%[inhibitor]	-1.8%	-0.3
> Cc1cccc(NC(=O)[C@@H]2CCCN2C2=NS(=O)(=O)c3ccccc32)c1C
→ .	19%	29	14%	1.2%	1.0
> O=C(NCCO)c1ccc(CSc2nc3ccccc3[nH]2)cc1
→ 4.3	3%	10	14%	0.8%	-0.6
> CCc1ccc(NC(=S)Nn2cnnc2)cc1
→ -0.6	18%	26	14%[15.4 µM]	.	0.4
> Cc1noc(C)c1COc1ccc(C(=O)N2CCC(C)CC2)cc1
→ .	1%	-19	1%	-5.2%	1.4
> CCn1nnnc1SCC(=O)c1cccc(OC)c1
→ 0.0	-2%	-3	-3%	-0.3%	0.2
> O=c1c2ccccc2ncn1CCCSc1ccc(Cl)cc1
→ 1.2	2%	-9	-24%	0.0%	1.0
> O=C(CNS(=O)(=O)c1ccc(C(=O)N2CCCCC2)cc1)N1CCCCC1
→ 1.2	-2%	24	9%	-1.5%	2.7
> O=[N+]([O-])c1ccc(O)c(-c2cc(C(F)(F)F)nc(-c3ccccc3)n2)c1
→ -5.0	?	41	18%	1.2%	3.9
